PrP 5UTR inh: suppresses PrP 5' UTR mRNA reporter expression; cell-based PrP 5' UTR mRNA reporter, plate reader; inhibition, % (test concentration not listed); 0.35% of 340,000 active;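 active = every replicate at 50% or more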;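 also: 0 = median of the neutral control wells; tested in H4 reporter cells; numbers are from one replicate; inactives centre near -14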
Bead autofluor: flagged as autofluorescent in microsphere protease counterscreen | AID 624483 | fluorescence intensity (no concentration beside the values) | compound autofluorescence counterscreen, microsphere flow cytometry; stronger effect = higher value | 3.1% of 360,000 active;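 active = at least 3 SD above the mean of all compounds, about 16000 in these data; inconclusive = too few beads counted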;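 also: 100 nL of 1 mM stock went into each well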
BJeLR viability: kills HRASV12-expressing BJeLR cells; AID 1554; inhibition, % (no concentration beside the values); BJeLR (HRASV12) viability, CellTiter-Glo ATP luminescence, 48 h; reference of the scale not given here; 0.17% of 300,000 active;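 active = replicate mean above 50%; inconclusive = above 50% but judged a plate artefact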;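 also: 50 nL library stock added to about 25 µL; numbers are from one replicate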
Sa ugtP lethal: compounds lethal to S. aureus RN4220 ugtP deletion mutant; growth inhibition, % (no concentration beside the values); 0.54% of 330,000 active; OD600 growth, 16 h; some inactives read as strong as hits;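 active = z-score under -3 and OD600 up to 0.15 on both plates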;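 also: plate controls were untreated wells for no effect and antibiotic for full effect; wells of about 80 µL received 100 nL stock; the first replicate is given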
Mtb hypoxia inh: Mtb hypoxia fluorescent reporter inhibition. M. tuberculosis hypoxia-regulated fluorescent reporter, fluorescence. fluorescence inhibition, % (test concentration not listed). 0.1% of 300,000 active. AID 1159583;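 active = 35 to 45% if threefold the growth effect, above 45% if 1.5-fold the growth effect; inactive = the rest, general growth blockers included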;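 also: wells of about 50 µL received 100 nL stock; 0% = vehicle wells and 100% = reference inhibitor wells; whole bacteria with a GFP reporter of the hypoxia response; strong numbers were not always called active; many hits fall short of the cut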
Sa RN4220 lethal: kills Staphylococcus aureus RN4220; 0.33% of 330,000 active; inhibition, % (concentration not given with the values); S. aureus RN4220 growth, OD600, 16 h; AID 1259311;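 active = z-score of -3 or lower and OD600 up to 0.18 on both plates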;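 also: plate controls were untreated cells for no effect and reference antibiotic for full effect; stock transfer was 100 nL into about 80 µL; one replicate is shown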
Mtb hypoxia inh growth: recorded beside Mtb hypoxia inh, whose call it bears; growth inhibition, %; measured here: M. tuberculosis growth (absorbance);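 0% = vehicle and 100% = reference antibiotic; read after six days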
An asterisk follows results filed as active; ? = inconclusive; . = no result given.

SMILES | PrP 5UTR inh | Bead autofluor | BJeLR viability | Sa ugtP lethal | Mtb hypoxia inh | Mtb hypoxia inh growth | Sa RN4220 lethal
COC(=O)C1=C(c2cc3ccccc3o2)C[C@@H]2CC[C@H]1N2C(=O)N1CCOCC1 | -12 | 3492 | 15 | . | . | . | .
O=C1C(Cc2ccccc2)Nc2ncnc(N3CCCCC3)c2N1Cc1ccccc1 (configuration not stated) | -10 | 4211 | . | -1 | -4 | 4 | -1.7
CCOC(=O)N1CCN(S(=O)(=O)c2ccc3[nH]cc(C(=O)O)c(=O)c3c2)CC1 | -24 | 4183 | 8 | -2 | . | . | 1.8
CN(c1cccc(NC(=O)c2ccc(N(C)S(=O)(=O)c3ccccc3)cc2)c1)S(C)(=O)=O | -14 | 4207 | 9 | 0 | 9 | 2 | 4.1
O=C1CS/C(=N/N=Cc2ccn[nH]2)N1 | . | . | . | 13 | -9 | -4 | 3.8
COc1ccc2c(C)cc(N3CCN(Cc4ccccc4)CC3)nc2c1 | -12 | 3662 | -7 | -18 | 3 | -4 | 2.7
Cc1cc(C)n2nc(C)c(-c3ccc(Cl)cc3)c2n1 | -17 | 3937 | 3 | 14 | -2 | -15 | 7.0
CCOC(=O)N1CCN(C(=O)CSc2ccc(C(F)(F)F)cc2[N+](=O)[O-])CC1 | -17 | 6587 | -7 | 12 | 9 | 10 | 0.4
CCN1C(=O)NC2=C(C(=O)c3ccccc32)C1c1ccccc1F (configuration not stated) | -17 | 4869 | 0 | -4 | . | . | -0.9
O=C(NC1CCCCCCC1)c1ccccc1O | -95 | 3597 | 3 | -3 | . | . | 4.5
CCOc1ccc(CC2CC(=O)NC2=O)cc1 (configuration not stated) | -17 | ? | 0 | 0 | . | . | 5.3
CC(C)(C)NC(=O)CN(C(=O)CNS(=O)(=O)c1ccc(Cl)cc1)c1ccc2c(c1)OCCO2 | -18 | 3156 | 0 | 9 | 6 | 0 | 2.1
Cc1ccc(NS(=O)(=O)Cc2ccccc2)nc1 | -27 | 4577 | 1 | 3 | 6 | 6 | 2.2
Nc1nonc1-n1nnc(C(=O)NN=Cc2c(Cl)cccc2Cl)c1CN1CCOCC1 | . | . | . | 9 | -9 | -5 | 7.5
O=C(COC(=O)CC1CCCCC1)Nc1c(Cl)cccc1Cl | . | 6230 | . | 6 | 3 | 5 | 8.4
c1coc(-c2nc3ccccc3nc2-c2ccco2)c1 | -11 | 5006 | -2 | -14 | . | . | 14
O=C(Cn1cnc2c(nnn2Cc2ccccc2)c1=O)NCC1CCCO1 (configuration not stated) | -13 | 5825 | 10 | 6 | 7 | 0 | -1.3
N/C(=N\OC(=O)COc1ccc(Br)cc1Cl)c1ccccn1 | -37 | 2525 | -9 | 6 | -2 | 0 | 7.1
Cc1ccccc1OCCC(=O)OCC(=O)N1CCN(S(=O)(=O)c2ccc(Cl)cc2)CC1 | -18 | 5359 | 11 | 1 | 2 | -6 | 2.2
Cc1ccc2c(C(=O)CCl)c(C)[nH]c2c1 | -15 | 5770 | 6 | -5 | . | . | 1.9
O=S(=O)(NCCc1ccc(F)cc1)c1cc(C(F)(F)F)ccc1Br | -14 | 3985 | . | -24 | -9 | -5 | 4.9
Cc1cc(C(=O)CN2CCCC(C)C2)c(C)n1-c1ccc(F)cc1 (configuration not stated) | -78 | 2549 | -10 | -3 | 11 | 7 | 1.4
CCCS(=O)(=O)N1CCCC(C(=O)NCCCN2CCN(c3cccc(Cl)c3)CC2)C1 (configuration not stated) | 1 | 2487 | -7 | 7 | 3 | 11 | -1.2
CCCC(C)NC(=O)COc1ccc(S(=O)(=O)N2CCCC2)cc1 (configuration not stated) | -3 | 2576 | -3 | 2 | 3 | 3 | 1.0
O=C(O)c1ccc(NS(=O)(=O)c2cccc3nsnc23)cc1 | -25 | 12837 | 5 | -4 | -5 | 4 | 3.4

Entries from the list above containing fluorine, in the order listed:
SMILES | PrP 5UTR inh | Bead autofluor | BJeLR viability | Sa ugtP lethal | Mtb hypoxia inh | Mtb hypoxia inh growth | Sa RN4220 lethal
CCOC(=O)N1CCN(C(=O)CSc2ccc(C(F)(F)F)cc2[N+](=O)[O-])CC1 | -17 | 6587 | -7 | 12 | 9 | 10 | 0.4
CCN1C(=O)NC2=C(C(=O)c3ccccc32)C1c1ccccc1F (configuration not stated) | -17 | 4869 | 0 | -4 | . | . | -0.9
O=S(=O)(NCCc1ccc(F)cc1)c1cc(C(F)(F)F)ccc1Br | -14 | 3985 | . | -24 | -9 | -5 | 4.9
Cc1cc(C(=O)CN2CCCC(C)C2)c(C)n1-c1ccc(F)cc1 (configuration not stated) | -78 | 2549 | -10 | -3 | 11 | 7 | 1.4

New compounds follow:
SMILES | PrP 5UTR inh | Bead autofluor | BJeLR viability | Sa ugtP lethal | Mtb hypoxia inh | Mtb hypoxia inh growth | Sa RN4220 lethal
O=S(=O)(c1ccccc1)N1CCN(c2nnc(-c3ccccc3)c3ccccc23)CC1 | -20 | 4985 | -7 | 14 | -4 | -5 | -2.2
COC(=O)CN(Cc1ccccc1)S(=O)(=O)c1ccc(OC)c(OC)c1 | -12 | 9971 | 2 | 10 | 3 | 4 | 6.8
COc1ccc(OC)c(S(=O)(=O)NCc2csc(-c3ccccc3)n2)c1 | -49 | 8009 | 5 | 0 | 7 | 9 | 9.2
COc1cccc(/C=N/N=C(\N)c2nonc2N)c1O | -44 | 4918 | 0 | . | . | . | .
COc1cc(OC)c(OC)cc1C=NNC(=O)c1ccc(CSc2nc(C)cc(C)n2)cc1 | . | . | . | 10 | 3 | -5 | 2.3
COc1ccc(C(=O)NCC(=O)OC2CCCCC2=O)cc1 (configuration not stated) | -3 | 4252 | -3 | 4 | 1 | 5 | -1.9
Clc1ccc(OCc2nn3c(-c4ccccc4)nnc3s2)c(Cl)c1 | -9 | 9548 | -15 | -18 | 9 | 9 | 5.7
O=C(CNC(=O)c1ccc(Br)o1)NCC1CCCO1 (configuration not stated) | -11 | 5640 | -10 | 2 | 7 | -10 | 2.9
O=C(Nc1cccc(CNCCc2c[nH]c3ccccc23)c1)c1ccccc1Cl | -18 | 3772 | 4 | -15 | -1 | 11 | -0.4
Cc1cc(C)n(-c2ccc(C(=O)OC(C)C(=O)Nc3ccc(C(N)=O)cc3)cc2)n1 (configuration not stated) | 0 | ? | . | -2 | 0 | 3 | -0.3
CN1CCN(C(=O)N2c3ccccc3CCc3ccccc32)CC1 | -20 | 4530 | 4 | 1 | -5 | -9 | 1.2
COc1ccccc1OCCOCCOc1ccc(C)cc1Br | -26 | 7380 | -13 | 11 | 9 | 10 | 12
COCCCNC(=O)CN(c1ccc(Cl)c(Cl)c1)S(C)(=O)=O | -1 | 7472 | 0 | 9 | 14 | 1 | 3.7
Cc1cc(Br)ccc1SCC(=O)OCC(=O)NCc1ccco1 | -4 | 5933 | 11 | -3 | 12 | 8 | 1.9
CCOc1ccc(NC(=O)CCN2CCN(S(=O)(=O)c3ccc(Cl)cc3)CC2)cc1 | -4 | 6302 | -10 | 4 | 13 | 6 | 0.4
O=C(COC(=O)Cc1ccc(S(=O)(=O)N2CCOCC2)s1)NCc1ccc(Cl)cc1 | -23 | 15242 | 0 | 12 | 6 | -2 | 4.2
COc1ccc(N2C(=O)CC(N3CCCCC3)C2=O)cc1 (configuration not stated) | -3 | 4144 | 2 | 8 | 0 | -4 | 7.7
Cc1nn(-c2ccccc2)c(C)c1/C=N/N1CCN(c2ccccn2)CC1 | -24 | 4594 | -2 | . | . | . | .
N#Cc1ccc(C(=O)Nc2cc(-c3ccccc3)nn2-c2ccccc2)cc1 | -1 | 2918 | . | -6 | 6 | 2 | -2.4
COCCN1C(=O)c2ccc(C(=O)Nc3cccnc3)cc2C1=O | -8 | 6365 | 10 | -2 | 3 | 0 | 6.1
Cc1ccc(NC(=S)NNC(=O)Cn2nc(C(F)F)cc2C(F)F)cc1 | -12 | 2523 | 14 | 8 | -4 | -2 | -0.6
Cc1cccc(NC(=O)/C(C#N)=C/c2cn(CC(=O)NCc3ccco3)c3ccccc23)c1 | -31 | 2189 | . | -4 | 12 | 30 | 5.2
O=C(CCCn1c(=O)[nH]c2cc(Cl)ccc2c1=O)NC1CCCCCC1 | -14 | 4082 | -9 | -4 | 4 | 1 | -0.9
O=c1cc(-c2ccccc2)nc(SCc2ccc(Cl)cc2)[nH]1 | -17 | 2529 | 8 | -10 | 2 | 5 | 9.1
CC(C)S(=O)(=O)c1nsc2nc(=O)c(/C=C3\C=Nc4ccccc43)c(N)n12 | -12 | 2319 | -1 | -4 | 20 | 18 | 3.8

Looked up above:
In Sa RN4220 lethal, N#Cc1ccc(C(=O)Nc2cc(-c3ccccc3)nn2-c2ccccc2)cc1 reads -2.4
In BJeLR viability, Cc1cc(Br)ccc1SCC(=O)OCC(=O)NCc1ccco1 reads 11
In BJeLR viability, COc1ccc(N2C(=O)CC(N3CCCCC3)C2=O)cc1 (configuration not stated) reads 2
In PrP 5UTR inh, O=C(CNC(=O)c1ccc(Br)o1)NCC1CCCO1 (configuration not stated) reads -11
In Sa RN4220 lethal, Cc1cc(C)n(-c2ccc(C(=O)OC(C)C(=O)Nc3ccc(C(N)=O)cc3)cc2)n1 (configuration not stated) reads -0.3
In PrP 5UTR inh, Cc1nn(-c2ccccc2)c(C)c1/C=N/N1CCN(c2ccccn2)CC1 reads -24

Next section
SMILES | PrP 5UTR inh | Bead autofluor | BJeLR viability | Sa ugtP lethal | Mtb hypoxia inh | Mtb hypoxia inh growth | Sa RN4220 lethal
Cc1nn(CC(=O)N2CCN(C(=O)c3ccco3)CC2)c(C)c1[N+](=O)[O-] | -10 | 3513 | . | 3 | 10 | 8 | 5.1
O=C(NCCc1ccccc1)c1ccc(S(=O)(=O)N2CCCC2)cc1 | -8 | 4504 | . | 4 | 2 | 7 | 3.2
Cc1cc(S(=O)(=O)NCc2ccccc2)ccc1OCC(=O)N1CCOCC1 | -15 | 3675 | -3 | -3 | -3 | 5 | 1.7
CCCCOc1ccc(-c2ncc(Cl)cn2)cc1 | -64 | 12761 | -6 | 20 | 12 | 22 | 12
O=C(NC1CCCCC1)C1CCCN1S(=O)(=O)c1cccc2nsnc12 (configuration not stated) | -22 | 9197 | -2 | 6 | 7 | 15 | 2.3
O=C(NC(=O)N1CCC2(CC1)OCCO2)c1ccc(Cl)cc1 | -3 | 3321 | 15 | 8 | -5 | -4 | 5.5
Cc1cc(=O)n2nc(N3CCCC(C(=O)NCc4ccccc4Cl)C3)sc2n1 (configuration not stated) | -5 | 5531 | -7 | -1 | -9 | 2 | 1.5
CSc1ccc(/C=C(/NC(=O)c2ccc(C)cc2)C(=O)Nc2cccc(F)c2)cc1 | -16 | 8160 | 10 | . | . | . | .
O=C1NCCN/C1=C\C(=O)c1cccc(Br)c1 | -21 | 4225 | -3 | 1 | -3 | -2 | 3.1
Cc1cccc(Cc2cnc(N3C(=N)SC(C)C3=O)s2)c1 (configuration not stated) | -14 | 3275 | -1 | 38 | 8 | 3 | 90*
Cc1ccc(S(=O)(=O)N=S(CC2CC2(Cl)Cl)CC2CC2(Cl)Cl)cc1 (configuration not stated) | -4 | 7895 | 3 | 4 | 10 | 5 | 2.6
CCN1CCN(S(=O)(=O)c2ccc(Cl)c(C(=O)NC(C)(C)C)c2)CC1 | -12 | 4863 | -1 | 1 | -4 | 13 | 2.4
NS(=O)(=O)c1ccc(NS(=O)(=O)c2cccs2)cc1 | -19 | 11421 | 2 | -3 | 10 | 5 | 7.4
COc1cc2c(cc1OC)C(c1cccs1)N(C(=O)c1cccnc1)CC2 (configuration not stated) | -25 | 2372 | 21 | 6 | 11 | -2 | 9.7
O=C(O)CC1S/C(=N\N=C2CCCCCC2)N(c2ccccc2)C1=O (configuration not stated) | -12 | 3664 | 4 | . | . | . | .
O=C(c1ccc(Cn2cc(Br)cn2)cc1)N1CCN(c2ccccc2)CC1 | -12 | 23168* | 0 | -1 | 6 | 6 | 3.0
N#CCCCSc1nnc(-c2ccccn2)o1 | -30 | 9317 | 7 | 2 | 6 | 12 | 0.2
Cc1ccc2[nH]c3c(c2c1)CN(C(=O)CN1CC(C)OC(C)C1)CC3 (configuration not stated) | -20 | 17955* | . | 6 | . | . | 5.4

Bioassay records (PubChem)
